High-throughput results: PubChem, The Scripps Research Institute Molecular Screening Center
OX1R FRET antag – blocks the human orexin 1 receptor. AID 485270. hit rate 1.8% among 330,000. OX1R-expressing cells, FRET antagonist read-out. inhibition, % at 6.6 µM; in the data active means inhibition mostly above about 38%, no sharp cut-off; inactive means mostly below about 40%;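 further: 0% = agonist challenge alone and 100% = reference antagonist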
Target sequence (O43613 whole entry, looked up): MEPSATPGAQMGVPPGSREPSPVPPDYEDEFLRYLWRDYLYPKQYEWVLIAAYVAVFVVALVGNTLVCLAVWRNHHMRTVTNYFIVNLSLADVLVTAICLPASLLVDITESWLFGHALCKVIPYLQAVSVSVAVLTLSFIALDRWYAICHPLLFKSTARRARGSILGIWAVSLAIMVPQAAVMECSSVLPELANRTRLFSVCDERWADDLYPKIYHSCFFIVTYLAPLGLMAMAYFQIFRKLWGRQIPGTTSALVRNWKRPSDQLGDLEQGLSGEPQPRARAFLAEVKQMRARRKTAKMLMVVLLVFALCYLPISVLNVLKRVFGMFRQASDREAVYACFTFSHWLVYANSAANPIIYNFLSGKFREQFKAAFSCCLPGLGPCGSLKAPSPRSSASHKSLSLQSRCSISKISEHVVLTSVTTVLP
Starred values were filed as active, the others as inactive; & = joins results of further samples.

SMILES	OX1R FRET antag
N#CC1(NC(=O)COC(=O)c2cc(O)c3ccccc3c2O)CCCCC1	25
COC(=O)c1cn(-c2ccccc2)nc1-c1cccnc1	18
CCc1c(C)sc(NC(=O)OC)c1C(=O)N1CCOCC1	8
O=C(Nc1cccn(Cc2c(F)cccc2Cl)c1=O)NC1CCCCC1	19
NS(=O)(=O)c1ccc(NC(=O)Nc2cccc(Cl)c2)cc1	8
CCN(CC)S(=O)(=O)c1ccc(N2CCOCC2)c(NC(=O)c2ccc(NC(C)=O)cc2)c1	14
O=S(=O)(c1ccc(Br)cc1)N1CCN=C1SCc1cccnc1	10
O=C1COc2cc(S(=O)(=O)CCC(=O)N3CCCCC3)c(Cl)cc2N1	0
O=C(O)Cn1cc(C(=O)C2CC2)c2ccccc21	6
C/C(=N\Nc1cc(-c2ccccc2)nc(-c2ccc(Br)cc2)n1)c1cccc(N)c1	-2
Cn1cccc1C1(C(F)(F)F)NCCNC1=O (stereo not drawn)	5
CCn1nc(NC(=O)c2ccco2)c2cc3cc(C)ccc3nc21	3
Cc1nc2cc(NC(=O)N3CCCC3)ccc2n1C	15
Cc1ccc(S(=O)(=O)N2CCCOC2)cc1	13
COc1ccc(-c2cc(C(=O)N/N=C/c3cccnc3)c3ccccc3n2)c(OC)c1	5
Cc1ccc(N2C(=O)c3ccc(C(=O)N4CCN(c5ccccc5F)CC4)cc3C2=O)cc1	10
CC(=O)N1c2ccc(S(=O)(=O)N3CCC(C(=O)NCc4ccccc4)CC3)cc2CC1C (stereo not drawn)	11
O=C(Nc1cc([N+](=O)[O-])ccc1N1CCCC1)c1cccs1	40
COCCn1c(=S)[nH]c2ccccc21	11
Cc1ccc(N2C(=N)SCC2=O)cc1Cl	22
C=CCC[C@H](Cc1ccc(F)cc1)C(=O)OC[C@H](C)NC(=O)[C@H](CC=C)CC(=O)NCCO	15
CCn1c(CSc2nnc(-c3ccncc3)n2CCOC)nc2cc(C(=O)O)ccc21	7
NNC(=O)CNC(c1ccccc1)c1cc(Cl)ccc1NC(=O)c1ccccc1 (stereo not drawn)	-6
CCc1nnc(NC(=O)CSc2nnc(CCc3nc4ccccc4[nH]3)n2C)s1	15
Cc1c(Br)c([N+](=O)[O-])nn1CC(=O)Nc1ccc(C(N)=O)cc1	21
CCO[C@@H]1OC(C(N)=O)=C[C@H](c2ccc3c(c2)OCO3)[C@H]1CCCO	3
O=C(O)C1=C[C@@H](c2ccc(F)cc2)C[C@@H](OCCCCO)O1	28
Cc1nc2c(o1)CCc1ccccc1C2N1CCN(C)CC1 (stereo not drawn)	9&8
COc1ccc2nc(COC(=O)c3cccc([N+](=O)[O-])c3)c(C(C)=O)[n+]([O-])c2c1	8
c1cc(CN2CCCCC2)cc(OCCCNc2nc3ccccc3s2)c1	5
CNC(=O)NNC(=O)c1csc(-c2ccc(C(F)(F)F)cc2Cl)n1	6
CN(Cc1cc(=O)n2ccsc2n1)Cc1nc2ccccc2c(=O)[nH]1	6
NS(=O)(=O)c1ccc(CCNC(=O)CCNC(=O)c2ccco2)cc1	33
COC(=O)c1cc(S(=O)(=O)NCc2ccc(Br)cc2)c[nH]1	20
CC(C)Sc1nc2c(c(=O)[nH]c(=O)n2C)n1Cc1ccccc1	33
CNc1nnc(C(F)(F)F)s1	1
CCC(=O)Nc1c2c(nn1-c1cccc(Cl)c1)CSC2	12
Cc1ccc(CNC(=O)c2ccc(N3CCC4(CC3)CC(c3cccc(Br)c3)=NO4)c(NC(=O)c3ccc(Br)cc3)c2)cc1	5
Cc1ccc(O)c(CC(C)C)n1	11
COc1ccc(CNc2ccc(N3CCOCC3)cc2)cc1	13
CCc1nc2ccccc2[nH]1	4
CCOC(=O)c1c(NC(=O)CCN2C(=O)c3ccccc3C2=O)sc(C(=O)OC(C)C)c1C	2
O=C(O)CCCN1C(=O)C2C3CCC(O3)C2C1=O (stereo not drawn)	10
COc1ccc(CNC(=O)CCCn2nc(C)c3c(C)n(-c4ccc(C)cc4)nc3c2=O)cc1OC	14
COc1ccc(/C=C(/NC(=O)c2ccco2)C(=O)N2CCCC2=O)cc1	16
COc1ccc(NC(=O)C2CCC(=O)N2C(=O)OCc2ccccc2)cc1 (stereo not drawn)	12
CCN(CCCNC(=O)C1CCN(S(=O)(=O)CC)CC1)c1cccc(C)c1	-2
COc1ccc(-n2c(Cc3cccn3C)nnc2SCC(=O)Nc2cc(Cl)ccc2OC)cc1	18
CCOC(=O)c1[nH]c2ccc(Br)cc2c1NC(=O)CCN1CCCC(C)(C)C1	4
O=C(O)/C=C/c1cccc2c1OCCO2	13
COc1ccnc(Oc2ccccc2)n1	20
CC(=O)Nc1ccc(S(=O)(=O)N(C)CC(=O)Nc2ccc(F)c(F)c2F)cc1	3
O=C(COC(=O)c1ccc(Cl)c(Cl)c1)NC1CCCC1	-5
COc1ccc(OCC(O)CNC(=O)Nc2cc(F)ccc2C)cc1 (stereo not drawn)	1
C[C@@H]1CN(C2CCN(Cc3nc(C(c4ccccc4)c4ccccc4)no3)CC2)C[C@H](C)O1	7
O=C(c1ccc2c(c1)OCO2)C1CCCN(Cc2ccc3cccc(F)c3n2)C1 (stereo not drawn)	22
Cc1c(NS(=O)(=O)c2cccs2)c(=O)n(-c2ccccc2)n1C	18
O=C(COC(=O)CN1C(=O)c2ccccc2C1=O)Nc1ccc(S(=O)(=O)N2CCCC2)cc1	11
COc1ccc(N2CCN(C(=O)Cn3c(=O)c4cccn4c4cccnc43)CC2)cc1	2
O=C(CCNc1cccc(Cl)c1)c1cccs1	5

Next section.
SMILES	OX1R FRET antag
CCc1ccccc1NC(=O)C(Cc1cccc(OC)c1OC)c1nn[nH]n1 (stereo not drawn)	11
CC1(C)Cc2c(cnn2-c2ccc(F)cc2)C(NC(=O)c2ccco2)C1 (stereo not drawn)	16
O=C1CC(NS(=O)(=O)c2cccs2)CN1c1cccc(F)c1 (stereo not drawn)	7
CC(C)=CC(=O)Nc1ccccc1C(N)=O	26
O=C(CSc1nc(C2CC2)nc2ccccc12)Nc1cccc(O)c1	28
CCOc1ccc(/C=N\NC(=O)CC(=O)NCCc2ccccc2)cc1	1
COc1ccc(CN(C)S(=O)(=O)c2nnc(NC(=O)c3cccc(OC)c3)s2)cc1	21
C=CCc1ccc(OCCCOc2ccc(C)cc2OC)c(OC)c1	10
CCCCn1c(-c2ccncc2)nc2c1c(=O)[nH]c(=O)n2CC(C)C	10
CCN(c1ccccc1)S(=O)(=O)c1ccc(NN)nc1	-6
Cc1ccc(CNC(=O)CSc2nc3ccsc3c(=O)n2Cc2ccc(C(=O)O)cc2)cc1	5
COc1cc([N+](=O)[O-])ccc1Nc1nc(C)cc(C)n1	13
NC(=O)CC(NC(=O)Cc1cccc2ccccc12)c1ccc(N2CCCCCCC2)c([N+](=O)[O-])c1 (stereo not drawn)	26
Cc1ccccc1Nc1nc(N)nc(COC(=O)c2cccc(S(=O)(=O)N(C)c3ccccc3)c2)n1	19
Cc1[nH]c2ccc(F)cc2c(=O)c1SC(F)(F)C(F)C(F)(F)F (stereo not drawn)	22
CC1(C(=O)NC2CCCCCCC2)CCC(=O)N1Cc1cccs1 (stereo not drawn)	5
Cc1nc(NC(=O)c2ccccc2)nc2cc3c(cc12)OCO3	4
O=C(NCCCn1ncc2ccccc21)c1cc(COc2c(F)cccc2F)on1	20
CCCN(CC#CC(O)(c1ccccc1)c1cccnc1)CCC (stereo not drawn)	11
COC(=O)CC1C(=O)NCCN1C(=O)OC(C)(C)C (stereo not drawn)	3
Cn1c(=O)[nH]c(=O)c2c1nc(CN1CCN(c3ccccc3F)CC1)n2CCc1ccccc1	-2
COc1cccc(NC(=O)c2ccc[n+](C)c2)c1	9
O=C(c1ccc(COCC(F)(F)F)o1)N1CCCCCC1	12
COC(=O)[C@@H]1C[C@@]2(O)[C@H](O)[C@H](O)[C@H](O)C[C@H]2N1CC(c1ccccc1)c1ccccc1	13
Cc1cccc(NC(=O)CCCN2C(=S)NC(C)(C)CC2C)c1C (stereo not drawn)	41
Cc1ccc(-n2ncc3c2CC(C)(C)CC3NC(=O)c2ccncc2)cc1 (stereo not drawn)	39
Cc1nn(Cc2c(Cl)cccc2Cl)c(Cl)c1/C=N/NC(=O)c1cccnc1	18
COc1ccc(NC(=O)c2cc(-c3ccccc3)nc3c2cnn3C(C)C)c(OC)c1	5
CCCn1c(=O)c2ccccc2n2c(SCCNCCO)nnc12	-5
COc1ccc(C(NC(=O)c2ccc(-c3ccccc3)cc2)c2ccccc2)cc1 (stereo not drawn)	6
CC(C)Nc1nnc(Sc2ccc(Cl)cc2[N+](=O)[O-])s1	20
COc1ccccc1CN1[C@@H](CC(=O)O)c2ccccc2S1(=O)=O	11
CCOc1ccc(NC(=O)CCNc2c(N3CCCC3)c(=O)c2=O)cc1	28
CCCCN(C)C(=O)c1ccc(S(=O)(=O)N2CCOCC2)cc1	21
O=C(NCCC1CCCCN1S(=O)(=O)c1ccc(F)cc1)C(=O)NCC1CCCO1 (stereo not drawn)	9
Nc1c2c(nc3sc4c(c13)CCCC4)CCCCCC2	17
C[C@H](CO)N1C[C@H](C)[C@@H](CN(C)S(=O)(=O)c2ccc(F)cc2)Oc2ccc(NC(=O)Nc3ccc(C(F)(F)F)cc3)cc2C1=O	0
CSc1nnc2c3cc(C)ccc3n(Cc3ccccc3)c2n1	27
O=C(CNc1ccc(F)cc1F)NC(=O)NCc1ccco1	-1
COc1ccc(/C=N/NC(=O)/C(=C/c2ccccc2)CCO)cc1	15
O=C(CN1C(=O)COc2ccccc21)NCCN1CCOCC1	22
N#Cc1ccccc1OCc1nnc(-c2ccccc2Br)o1	22
Cc1nc(-c2cccnc2)sc1C(N)=O	13
O=C(NNC(=O)c1cccc(Br)c1)Nc1ccc(Cl)cc1	3
CCn1c(SCC(=O)N2CCCCC2C)nnc1-c1ccco1 (stereo not drawn)	15
CCN(CC(=O)Nc1ccc(NC(C)=O)cc1)C(=O)c1cccc(S(=O)(=O)N2CCc3ccccc3C2)c1	5
CCSc1nnc(NC(=O)c2cccc(OCc3c(C)noc3C)c2)s1	27
CCN(CC)CCN1CCn2c3c(c4cc(C)ccc42)CCCC31 (stereo not drawn)	48
CCOC(=O)Nc1ccc2c(c1)N(C(=O)C(C)N1CCCC1)c1ccccc1CC2 (stereo not drawn)	24
Cc1ccc2c(c1)CCCN2C(=O)c1cc(C)on1	4
O=c1n(-c2ccccc2)c(=O)n(Cc2ccccn2)n1Cc1ccccn1	24
NC(=O)c1cc(-c2ccncc2)nc2ccc(Cl)cc12	7
CN(C)S(=O)(=O)c1ccc(NC(=O)COC(=O)c2ccccn2)cc1	17
COc1ccc(/C=C/C(=O)Nc2ccc(C(N)=O)cc2)cc1OC	16
Cn1c(SCC(=O)N/N=C/C=C\c2ccco2)nc2ccccc21	12
Fc1ccccc1N1CCN(c2ncnc3nc[nH]c23)CC1	9
COc1ccc(S(=O)(=O)Nc2ccc(S(=O)(=O)Nc3nc(C)cc(C)n3)cc2)cc1OC	6
COC(=O)C1=C(C)NC2=C(C(=O)CCC2)C1c1coc2ccccc2c1=O (stereo not drawn)	5
Cc1[nH]nc2c1C(c1ccc(OC(=O)c3ccco3)cc1)C(C#N)=C(N)O2 (stereo not drawn)	33
Cc1cc(NC(=O)NCC(F)(F)F)no1	9

Remaining list, next part:
SMILES	OX1R FRET antag
Cc1ccc(-c2c(C)c(-c3ccc(F)cc3)nc(N)c2C#N)o1	6
O=C(O)Cn1cnc2ccccc2c1=O	10
O=C(NCc1ccco1)C(=O)NCC1OCCN1S(=O)(=O)c1ccccc1 (stereo not drawn)	1
O=C(O)c1cc(S(=O)(=O)N2CCCCC2)ccc1Cl	7
O=C(Cc1ccc(S(=O)(=O)N2CCCC2)s1)N1CCOCC1	18
O=C(NC(N1CCOCC1)C(Cl)(Cl)Cl)c1ccco1 (stereo not drawn)	11
O=C(CNC(=S)N(CCCN1CCOCC1)Cc1cccs1)NCc1ccccc1Cl	10
CSc1ccc(CCNC(=O)C2CCCN(S(=O)(=O)N3CCOCC3)C2)cc1 (stereo not drawn)	3
COc1ccccc1-n1cnnc1SCC(=O)c1ccc[nH]1	3

An excerpt; most or all hits stand in other tables.
